Bioassay records from PubChem BioAssay.
FGF22 binding – FGF22 (human) thermal shift binding. recombinant FGF22 thermal shift, SYPRO orange fluorescence; percent of sucrose octasulfate shift, DMSO zero. calls only at 9.99 µM. Q9HCT0. AID 651658. 1.5% of 340,000 active;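 active means melting point raised past a set limit in the mean and every replicate; three in four hits are not shown here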
Target sequence (Q9HCT0 whole entry, looked up): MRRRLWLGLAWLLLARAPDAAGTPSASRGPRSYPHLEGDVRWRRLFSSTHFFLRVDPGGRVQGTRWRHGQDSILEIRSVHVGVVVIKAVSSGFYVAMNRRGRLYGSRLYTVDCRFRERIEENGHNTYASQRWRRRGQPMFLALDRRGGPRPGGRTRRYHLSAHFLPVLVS
Ecoli rRNA inh – inhibitors of bacterial rRNA selective over humanized ribosomes; 1.6% of 350,000 active; E. coli WT GFP vs humanized-ribosome RFP mutants, fluorescence, 24 h; active compounds read low; DMSO median 0, no signal -100; GFP signal change (wild-type ribosome), % (concentration not given with the values);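 active means significant combined selectivity score with lowered wild-type GFP, culture density cut under 30%, mutant RFP and density less affected; inactive means any of these conditions unmet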; further: one replicate is shown; some compounds called inactive have numbers as strong as hits
Ecoli rRNA inh OD600 – second read-out of Ecoli rRNA inh, no call of its own (marks repeat the call); OD600 change, %; measured here: OD600 growth;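 optical density of the mix in the first replicate; 0 = DMSO median and -100 = no signal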
Ecoli rRNA inh RFP – second read-out of Ecoli rRNA inh, no call of its own (marks repeat the call); RFP signal change, %; measured here: RFP humanized mutant strains;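 first replicate; 0 = DMSO median and -100 = no signal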
Active calls of the source: *; i = inactive; . = no result given; & = joins results of further samples. These rows are one share of the data; count on the stated rates, not on these rows.

Ecoli rRNA inh | Ecoli rRNA inh RFP | Ecoli rRNA inh OD600 | FGF22 binding | canonical_smiles
1 | -1.4 | 6 | i | C[C@H]1CN([C@@H](C)CO)C(=O)Cc2cc(NC(=O)Cn3cnnn3)ccc2O[C@@H]1CN(C)CC1CC1
1 | -0.8 | 11 | i | C[C@@H](O)C#Cc1ccc2c(c1)O[C@H](CN(C)C)[C@@H](C)CN([C@@H](C)CO)S2(=O)=O
-19* | 6.5* | -12* | i | Cc1cc(Br)c2nc(-c3ccc(Cl)cc3)c(Cc3cccc(Cl)c3)n2c1
-6 | 1.0 | -1 | i | O=C(C[C@@H]1C[C@H]2c3cc(NC(=O)c4cccnc4)ccc3O[C@H]2[C@H](CO)O1)NCc1ccccc1
3 | -3.1 | 2 | i | CN(C)C(=O)C[C@@H]1CC[C@@H](NC(=O)C2CCC2)[C@H](CO)O1
-5 | 0.2 | 1 | i | COc1ccc(NC(=O)Nc2cccc3c2O[C@@H](CN(C)C(=O)Nc2ccc4c(c2)OCO4)[C@H](C)CN([C@@H](C)CO)C3=O)cc1
-2 | 3.4 | -14 | i | C[C@H]1CN([C@@H](C)CO)C(=O)Cc2cc(NC(=O)C3CCCCC3)ccc2O[C@@H]1CN(C)S(=O)(=O)c1ccc(Cl)cc1
3 | -0.8 | 11 | i | CS(=O)(=O)N1[C@H](CO)[C@@H](c2ccccc2)[C@@H]1C#N
5 | -0.2 | 1 | i | O=C(C[C@H]1C=C[C@H](NS(=O)(=O)c2cccc(F)c2)[C@H](CO)O1)NCc1ccc2c(c1)OCO2
-1 | -2.2 | 12 | i | C[C@@H]1CN([C@@H](C)CO)C(=O)c2cc(C#CCN(C)C)cnc2O[C@H]1CN(C)C(=O)Cc1cccnc1
-4 | 0.1 | 6 | i | COc1ccc2c3c(n(C)c2c1)[C@H](CO)N(C(=O)C1CCCC1)CC31CCN(C(=O)c2ccncc2)CC1
-5 | -0.9 | -21 | i | CC(C)C#Cc1ccc2c(c1)O[C@@H](CN(C)S(C)(=O)=O)[C@H](C)CN([C@@H](C)CO)S2(=O)=O
3&6 | -0.9&-1.4 | 5&8 | i | CC(=O)N(C)C[C@@H]1Oc2cc(Br)ccc2S(=O)(=O)N([C@H](C)CO)C[C@@H]1C
2 | -0.1 | 11 | i | O=C(C[C@H]1CC[C@H](NC(=O)C2CC2)[C@H](CO)O1)NCC1CC1
3 | -2.2 | 6 | i | CCNC(=O)[C@H]1[C@H](CO)[C@H]2Cn3c(ccc(C4=CCCC4)c3=O)[C@@H]1N2C(=O)C1CC1
2 | 3.2 | -28 | i | CCCC#Cc1ccc([C@H]2[C@@H](CO)N(S(C)(=O)=O)[C@H]2C#N)cc1
1 | 1.0 | 2 | i | Cc1noc(C)c1S(=O)(=O)N(C)C[C@@H]1Oc2ccc(N(C)C)cc2CC(=O)N([C@@H](C)CO)C[C@@H]1C
6 | -0.5 | 12 | i | CC(C)(C)n1nc(C2CC2)c(Br)c1NC(=O)c1ccccc1F
1 | -2.7 | 5 | i | C[C@H](NC(=O)N(C)C[C@H]1OCc2ccccc2-c2c(n(C)c3ccccc23)C(=O)N([C@H](C)CO)C[C@@H]1C)c1ccccc1
-5 | 2.5 | -4 | i | CCc1nc(N2[C@H](CO)[C@H](c3ccccc3-c3ccccc3F)[C@@H]2C#N)sc1C

Copied from the list.
Entry of `CC(C)C#Cc1ccc2c(c1)O[C@@H](CN(C)S(C)(=O)=O)[C@H](C)CN([C@@H](C)CO)S2(=O)=O` in Ecoli rRNA inh RFP: -0.9
Entry of `CCc1nc(N2[C@H](CO)[C@H](c3ccccc3-c3ccccc3F)[C@@H]2C#N)sc1C` in Ecoli rRNA inh: -5
Entry of `Cc1cc(Br)c2nc(-c3ccc(Cl)cc3)c(Cc3cccc(Cl)c3)n2c1` in Ecoli rRNA inh RFP: 6.5*
Entry of `COc1ccc(NC(=O)Nc2cccc3c2O[C@@H](CN(C)C(=O)Nc2ccc4c(c2)OCO4)[C@H](C)CN([C@@H](C)CO)C3=O)cc1` in Ecoli rRNA inh OD600: 1

(listing goes on)
Ecoli rRNA inh | Ecoli rRNA inh RFP | Ecoli rRNA inh OD600 | FGF22 binding | canonical_smiles
0 | -0.8 | -6 | i | O=C(C1CCOCC1)N1C[C@@H]2[C@H](c3ccccc31)[C@H](CO)N2Cc1ccccc1Cl
-1 | -0.5 | 7 | i | CS(=O)(=O)N1[C@H](C(=O)NC2CCC2)[C@@H](CO)[C@@H]2Cn3c(ccc(-c4ccccc4)c3=O)[C@@H]21
2 | 0.0 | 2 | i | CO[C@@H]1CN(C)C(=O)c2cc(NC(C)=O)ccc2OC[C@@H](C)N(Cc2ccccn2)C[C@@H]1C
1 | 0.8 | 1 | i | C[C@@H]1CCCCO[C@H](CN(C)C(=O)CCCN(C)C)[C@@H](C)CN([C@@H](C)CO)C(=O)c2cc(NC(=O)NC3CCCCC3)ccc2O1
-1 | -0.7 | -3 | i | CCCN1[C@H](C(=O)N2CCOCC2)[C@@H](CO)[C@@H]2Cn3c(ccc(-c4ccccc4F)c3=O)[C@@H]21
4 | -2.1 | 4 | i | CNC[C@@H]1Oc2ccc(NC(=O)C3CC3)cc2CC(=O)N([C@H](C)CO)C[C@H]1C
1 | -0.6 | 2 | i | COC(=O)C[C@H]1CC[C@H]2[C@H](COc3ccc(NS(C)(=O)=O)cc3C(=O)N2C)O1
0 | -2.5 | 1 | i | C[C@@H]1CN([C@H](C)CO)C(=O)c2cc(NS(=O)(=O)c3ccccc3)ccc2O[C@@H](C)CCCCO[C@H]1CN(C)Cc1ccncc1
-1 | -2.6 | 6 | i | Cc1ccc(S(=O)(=O)N[C@H]2CC[C@@H](CCNC(=O)C3CCC3)O[C@H]2CO)cc1
-1 | -1.8 | -3 | i | CCNC(=O)Nc1ccc2c(c1)C(=O)N(C)[C@H]1CC[C@@H](CC(=O)NCC3CCCCC3)O[C@H]1CO2
3 | -0.5 | -4 | i | C[C@H]1CN([C@@H](C)CO)C(=O)c2cc(NS(=O)(=O)c3cn(C)cn3)ccc2O[C@@H]1CN(C)C(=O)NC1CCCCC1
4 | 1.8 | -3 | i | CC(C)NC(=O)N[C@H]1CC[C@H](CCN)O[C@@H]1CO
-1 | -0.9 | -5 | i | Cc1noc(C)c1NC(=O)N(C)C[C@H]1Oc2ccc(NS(=O)(=O)c3ccc(Cl)cc3)cc2C(=O)N([C@H](C)CO)C[C@@H]1C
-4 | -4.6 | -6 | i | O=C(c1cccnc1)N1CC[C@@H]2[C@@H](CO)Nc3ccc(-c4ccccc4)cc3[C@@H]21
-2 | 6.2 | -16 | i | COc1ccc2c3c([nH]c2c1)[C@H](CO)N(C(=O)Nc1cccc(F)c1)CC31CN(S(=O)(=O)c2cccc(C)c2)C1
2 | -0.3 | 11 | i | O=C(N[C@@H]1CC[C@@H](CCNC(=O)C2CCC2)O[C@H]1CO)c1ccncc1
4 | -0.8 | 3 | i | COc1ccccc1NC(=O)N[C@@H]1CC[C@H](CC(=O)N[C@@H](C)c2ccccc2)O[C@H]1CO
1 | -1.0 | -4 | i | C[C@H](CO)N1C[C@H](C)[C@H](CN(C)S(=O)(=O)c2cn(C)cn2)Oc2c(NC(=O)Nc3ccc4c(c3)OCO4)cccc2C1=O
3 | 0.7 | 2 | i | Cc1noc(C)c1NC(=O)Nc1ccc2c(c1)CC(=O)N([C@H](C)CO)C[C@H](C)[C@@H](CN(C)C(=O)Nc1ccc(C(F)(F)F)cc1)O2
0 | -0.9 | 17 | i | CC(C)(C)[S@@](=O)N1Cc2cc(C(=O)N3CCCCC3)nc(-c3cccc(-c4ccc(C#N)cc4)c3)c2[C@H]1CCO

Three entries from above, as labelled records.
COc1ccccc1NC(=O)N[C@@H]1CC[C@H](CC(=O)N[C@@H](C)c2ccccc2)O[C@H]1CO
  Ecoli rRNA inh: 4
  Ecoli rRNA inh RFP: -0.8
  Ecoli rRNA inh OD600: 3
  FGF22 binding: i

COC(=O)C[C@H]1CC[C@H]2[C@H](COc3ccc(NS(C)(=O)=O)cc3C(=O)N2C)O1
  Ecoli rRNA inh: 1
  Ecoli rRNA inh RFP: -0.6
  Ecoli rRNA inh OD600: 2
  FGF22 binding: i

CC(C)(C)[S@@](=O)N1Cc2cc(C(=O)N3CCCCC3)nc(-c3cccc(-c4ccc(C#N)cc4)c3)c2[C@H]1CCO
  Ecoli rRNA inh: 0
  Ecoli rRNA inh RFP: -0.9
  Ecoli rRNA inh OD600: 17
  FGF22 binding: i

The list goes on.
Ecoli rRNA inh | Ecoli rRNA inh RFP | Ecoli rRNA inh OD600 | FGF22 binding | canonical_smiles
1 | -2.5 | -2 | i | COc1ccc(CN(C)C[C@@H]2Oc3ccc(NC(=O)Cn4cnnn4)cc3C(=O)N([C@H](C)CO)C[C@@H]2C)cc1
-6 | 4.3 | -20 | i | N#Cc1cccc(-c2ccc3c(c2)[C@@H]2[C@@H](CCN2C(=O)c2ccc4c(c2)OCO4)[C@H](CO)N3)c1
-1 | -2.6 | -3 | i | C[C@H](CO)N1C[C@H](C)[C@H](CN(C)C(=O)Nc2ccc3c(c2)OCO3)OCCCC[C@H](C)Oc2ccc(NS(=O)(=O)c3ccc(F)cc3)cc2C1=O
6 | -1.4 | 3 | i | CC(C)NC(=O)N1[C@H](CN(C)C(=O)c2cccnc2)[C@@H](c2ccccc2)[C@@H]1CO
2 | 1.7 | 5 | i | O=C(C[C@@H]1CC[C@H](NC(=O)c2cccnc2)[C@H](CO)O1)NCCN1CCCCC1
-6 | -1.5 | -7 | i | O=C(C[C@@H]1CC[C@@H]2[C@H](COC[C@H](O)CN2Cc2cc(F)ccc2F)O1)NCc1ccccc1
13 | 1.4 | -3 | . | C=CC[C@]12C[C@@]3(O[C@H](c4ccc(C(F)(F)F)cc4)N=C3C[C@H](c3ccc(OC)cc3)[C@H]1C)N(Cc1ccncc1)C2=O
-3 | -1.4 | 5 | i | C[C@H]1CN([C@@H](C)CO)C(=O)c2cccc(NC(=O)c3cnccn3)c2O[C@@H]1CN(C)Cc1ccccc1
-2 | 1.2 | -6 | i | CCC(=O)N1C[C@@H](C)[C@H](OC)CN(C)C(=O)c2ccc(NC(=O)Nc3ccccc3)cc2OC[C@H]1C
2 | -1.9 | -5 | i | COCCNC(=O)C[C@@H]1C[C@@H]2c3cc(NC(=O)c4ccc5c(c4)OCO5)ccc3O[C@@H]2[C@H](CO)O1
-2 | 1.5 | 6 | i | C[C@@H]1CN([C@H](C)CO)C(=O)c2cc(NS(=O)(=O)c3ccc(Cl)cc3)ccc2O[C@H]1CN(C)CC1CC1
-4 | -1.1 | -3 | i | C[C@@H]1CN([C@@H](C)CO)C(=O)c2cc(NC(=O)Nc3ccc(C(F)(F)F)cc3)ccc2O[C@@H](C)CCCCO[C@H]1CN(C)S(=O)(=O)c1cn(C)cn1
-1 | -0.3 | -2 | i | COc1ccc(S(=O)(=O)N(C)C[C@@H]2Oc3ccc(NC(=O)c4ccncc4)cc3CC(=O)N([C@@H](C)CO)C[C@@H]2C)cc1
-42 | -9.0 | -60 | i | Cc1cc(N2CCNC[C@H]2C)ccc1N1CCN(Cc2ccccc2)[C@H](C)C1
5 | -1.3 | 11 | i | C[C@@H]1CCCCO[C@@H](CN(C)C(=O)Nc2ccc(F)cc2)[C@@H](C)CN([C@H](C)CO)C(=O)c2cc(NC(=O)NC3CCCCC3)ccc2O1
0 | -1.5 | 0 | i | CC=Cc1ccc2n(c1=O)C[C@H]1[C@H](CO)[C@@H](C(=O)NCCC)[C@@H]2N1CCC(F)(F)F (mixture of isomers)
1 | -2.1 | -1 | i | CCNC(=O)C[C@H]1CC[C@@H]2[C@@H](COc3ccc(NC(=O)Cc4cccs4)cc3C(=O)N2C)O1
-5 | -3.2 | -4 | i | CCCNC(=O)N1CCC2(CC1)CN(C(=O)CC1CC1)[C@H](CO)c1[nH]c3cc(OC)ccc3c12
1 | 0.3 | 9 | i | CCCc1cn(CC[C@H]2CC[C@H](NC(=O)C3CC3)[C@@H](CO)O2)nn1
-1 | 0.7 | 4 | i | C[C@H](CO)N1C[C@H](C)[C@@H](CN(C)C(=O)Nc2ccc(F)cc2)OCCCC[C@H](C)Oc2ccc(NC(=O)NC3CCCCC3)cc2C1=O
3 | -1.0 | 2 | i | CCCC(=O)Nc1ccc2c(c1)OC[C@H](C)N(Cc1ccncc1)C[C@@H](C)[C@H](OC)CN(C)C2=O
-6 | 20 | -31 | i | C[C@H](CO)N1C[C@H](C)[C@@H](CN(C)Cc2ccc(C(F)(F)F)cc2)OCCCC[C@H](C)Oc2ccc(NS(=O)(=O)c3cccs3)cc2C1=O
0 | 1.4 | 0 | i | CCCNC(=O)N1C[C@@H](C)[C@H](OC)CN(C)C(=O)c2ccc(NS(C)(=O)=O)cc2OC[C@H]1C
5 | -1.9 | 1 | i | CO[C@H]1CN(C)C(=O)c2ccc(NS(=O)(=O)c3c(C)noc3C)cc2OC[C@H](C)NC[C@@H]1C
-4 | -0.5 | 4 | i | O=C(NCC[C@@H]1CC[C@@H](NC(=O)C2CCOCC2)[C@@H](CO)O1)Nc1ccc(Cl)cc1
4 | 6.9 | -6 | i | COc1ccc(CN(C)C[C@@H]2Oc3ccc(NS(=O)(=O)c4ccc(F)cc4)cc3CC(=O)N([C@@H](C)CO)C[C@H]2C)cc1
-1 | 2.6 | 4 | i | COc1ccc(NC(=O)Nc2ccc3c(c2)[C@@H]2C[C@@H](CC(=O)NCc4ccc5c(c4)OCO5)O[C@@H](CO)[C@@H]2O3)cc1
-4 | 2.1 | -11 | i | O=C(C[C@H]1CC[C@H]2[C@@H](COC[C@@H](O)CN2C(=O)c2ccc3c(c2)OCO3)O1)NC1Cc2ccccc2C1
